Source: PubChem BioAssay
Cruzain inh Det = blocks cruzain activity in presence of Triton detergent | Potency, µM, without a hit: max response, negative = inhibition, most hits filed as inhibitors | AID 1478 | purified cruzain, Z-FR-AMC fluorescence, 0.01% Triton | actives 0.43% (n = 200,000);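 note: plate controls were neutral wells for no effect and buffer without enzyme for full effect; nearly all actives have a fitted effect of over 40% in size; top concentration of the series not given in the record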
Target sequence (P25779 123-467 limits assumed): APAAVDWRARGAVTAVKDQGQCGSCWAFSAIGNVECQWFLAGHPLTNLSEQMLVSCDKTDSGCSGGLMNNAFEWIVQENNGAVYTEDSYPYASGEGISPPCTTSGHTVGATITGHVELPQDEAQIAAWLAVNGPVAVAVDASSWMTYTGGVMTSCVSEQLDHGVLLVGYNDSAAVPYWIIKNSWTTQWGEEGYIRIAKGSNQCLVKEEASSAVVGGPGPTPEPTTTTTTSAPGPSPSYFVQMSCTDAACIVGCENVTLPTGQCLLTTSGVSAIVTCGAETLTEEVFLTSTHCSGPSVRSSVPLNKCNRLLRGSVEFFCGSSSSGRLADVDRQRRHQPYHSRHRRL
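Cruzain (1.5 nM) preincubated 15 min at RT with compound in 100 mM sodium acetate pH 5.5, 5 mM DTT, 0.01% Triton X-100. Reaction started with 2 uM Z-FR-AMC; AMC fluorescence (ex 360/em 450 nm) change over 60 s gave rate.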
Cruzain inh noDet = inhibitors of Trypanosoma cruzi cruzain without detergent. actives 2.3% (n = 200,000). purified cruzain, Z-FR-AMC fluorescence, no detergent. P25779. Potency, µM, for the others: max response, negative = inhibition, actives largely listed as inhibitors;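 note: plate controls were enzyme without inhibitor for no effect and buffer without enzyme for full effect; nearly all actives have a fitted effect of over 40% in size; top concentration of the series not given in the record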
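Detergent-free condition (0.00005% Triton X-100) in acetate buffer pH 5.5 with DTT. 1.5 nM enzyme and compound were pre-mixed 15 min, then 2 uM Z-FR-AMC substrate added; reaction progress from fluorescence change between first and third reads (60 s).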
2A StopGo = FMDV 2A StopGo reporter, luciferase signal; actives 1.2% (n = 410,000); human cells with a luciferase reporter of 2A StopGo recoding; control for the full effect not named in the record; Potency, µM (doses to about 57.9 µM), for inactives: at the highest dose signal change, negative = less light; AID 1159524; active = well fitted falling curve with a large enough effect; inconclusive = small, poorly fitted or top-dose-only effect; inactive = no such curve, though single readings can be large or run the other way; tested in HEK293T cells; note: nearly all actives have a fitted effect of over 45% in size; luciferase light after 4 h
* marks the source's active call; other numbers are inactive results; ? = inconclusive; . = no result given; & = joins results of further samples; [ ] = remark or other dose. Unless noted, calls come from the whole dose curve; as a rule, active = well fitted curve in the direction sought with a large enough effect; inconclusive = small, poorly fitted or top-dose-only effect, or another doubt; inactive = no such curve, though single readings can be large; an effect the other way counts as inactive or inconclusive. Unless noted, % is set by controls: 0 for no effect and ±100 for the full control effect; potency is the fitted concentration of half-maximal effect.

Each structure is followed by: Cruzain inh Det, Cruzain inh noDet, 2A StopGo
O=C(Nc1cc(C(=O)N2CCN(CCO)CC2)c2c(c1)ncn2C1CCCC1)c1ccccc1
  ., ., -12%
COC(=O)C1CCN(Cc2ccc3c(c2)CN(C(=O)c2cc(C)on2)CCO3)CC1
  ., ., -2%
COc1ccc(CN2CCOc3ccc(C(O)c4cccnc4)cc3C2)c(OC)c1OC (stereo not drawn)
  ., ., -7%
ClC1=C(Cl)[C@]2(Cl)[C@@H]3[C@H]4C[C@H]([C@@H]5O[C@H]45)[C@@H]3[C@@]1(Cl)C2(Cl)Cl
  ., ., -29%
CC(O)(COc1ccccc1)c1ccc2c(c1)CN(C/C=C/c1ccco1)CCO2 (stereo not drawn)
  ., ., -5%
Cc1cnc(SCc2ccccn2)nc1C1CCCN(C(=O)c2ccc3[nH]c(C)c(C)c3c2)C1 (stereo not drawn)
  ., ., -16%
Cc1cc2nc(N3CCCN(Cc4cccn4-c4ncccn4)CC3)nc(C)c2cc1C
  ., ., -15%
Cc1cccc(-c2cccc(C(=O)N3CCc4c(cnc(C)c4CNC(=O)c4cncs4)C3)c2)c1
  ., ., -19%
CNC(=O)[C@@H]1C[C@H](NC2CCCCCCC2)CN1Cc1cccc(OC)c1OC
  ., ., -2%
O=C(c1ccncc1)N1CCC2(CCC(CNC(=O)C3(N4CCOCC4)CCCCC3)O2)CC1 (stereo not drawn)
  ., ., -4%
CCn1nc(C)c(CN2CCC3(CCC(CNC(=O)c4ccccc4)O3)CC2)c1C (stereo not drawn)
  ., ., -11%
C=N[C@@H](C(=O)N[C@@H]1C(=O)N2[C@@H]1SC(C)(C)[C@@H]2C(=O)O)c1ccccc1
  ., ., 6%
CCCS(=O)(=O)NCc1c(C)ncc2c1CCN(C(=O)c1ccc(F)c(F)c1)C2
  ., ., -9%
Cc1oc(-c2cccc(NC(=O)C3CCCN(C)C3)c2)nc1CNC(=O)c1coc2c1C(=O)CCC2 (stereo not drawn)
  ., ., -3%
CC1(C)c2[nH]c3ccccc3c2C[C@@H]2C(=O)N(c3cc(F)ccc3F)C(=O)N21
  ., ., 0%
CC(C)NCC(O)c1ccc(N)c(C#N)c1 (stereo not drawn)
  ., ., -8%[146 µM]
O=C(/C=C\c1ccc(Cl)cc1)N[C@@]12CCC(=O)[C@@H]3Oc4c(O)ccc5c4[C@@]31CCN(CC1CC1)[C@@H]2C5
  -0.7%, -1%, -3%
CN(C)c1ccc(-c2cncnc2NCc2cccnc2)cc1
  0.4%, 10%, -5%
OC[C@H]1O[C@@H](O[C@@H]2[C@@H](CO)O[C@](O)(CO)[C@H]2O)[C@H](O)[C@@H](O)[C@H]1O
  4.7%, 4%, 5%
O=S(=O)(c1ccccc1)N1CCC2(CCN(Cc3ccncc3)CC2)CC1
  -0.7%, -13%, -16%
Cc1csc(-c2coc3cc(O[C@@H]4O[C@H](CO)[C@@H](O)[C@@H](O)[C@H]4O)ccc3c2=O)n1
  -3.6%, -10%, 16%
O=c1c(O)c(-c2ccccc2)oc2ccc3occc3c12
  -1.1%, -5%, 9%
Cn1cccc1C(=O)N1CCC2(CCN(C(=O)Nc3cccc(F)c3)CC2)CC1
  -1.7%, -3%, -15%
CNCCCCc1cnc(C)c2[nH]c3ccccc3c12
  -14%, -16%, -10%
CC(C)CCCC(C)C1CCC2C3CC=C4CC(=O)CC[C@@]4(C)C3CC[C@@]12C (stereo partly drawn)
  -0.7%, 4%, 11%
O=C(c1cccc(F)c1)N1CCC2(CCN(Cc3nccs3)CC2)CC1
  0.9%, -4%, -5%
Cc1nn(C)c2nc(NNC(=O)Nc3cc(Cl)nc(Cl)c3)cc(C(C)C)c12
  -3.1%, 6%, ?
CN(C)c1ncc2nc(-c3ccc(F)cc3)c(=O)n(Cc3ccc(F)cc3)c2n1
  4.6%, -4%, -1%
CC(C)CN1CCCC2(CCN(C(=O)c3ccco3)CC2)C1
  -1.2%, 8%, -22%
O=c1c(CCc2ccccc2)nc2cnc(Oc3ccccc3)nc2n1C[C@H]1CCCO1
  7.7%, 1%, 9%
Cn1c(=O)c(-c2ccc(F)cc2)nc2cnc(N3CCOCC3)nc21
  2.4%, -3%, 23%
O=C(c1cccc(F)c1)N1CCC[C@@]2(CCN(c3ccncc3)C2)C1
  0.2%, 14%, 0%
CN(C)c1ccc(-c2cncnc2NCc2cccs2)cc1
  -3.5%, -9%, -11%
CC(C)(C#N)O[C@H]1OC(CO)C(O)C(O)C1O (stereo partly drawn)
  3.9%, -3%, 5%
COc1ccc(C(=O)N2CCC[C@@]3(CCN(C)C3)C2)cc1
  7.4%, 1%, -3%
COc1cc2c(cc1O)CCNC2C (stereo not drawn)
  1.1%, -2%, -5%
COc1cc2c(cc1OC)[C@H](C)N(CC1C(=O)O[C@@H]3C[C@@]4(C)CCC[C@H](C)[C@@]45OC5[C@H]13)CC2 (stereo partly drawn)
  0.7%, 13%, ?
COc1cccc(-c2cncnc2NCc2cccs2)c1
  -2.2%, 0%, -18%
COc1cccc(-c2nc(NCc3cnc(C)cn3)c3ccccc3n2)c1
  -1.8%, 10%, 29%
NCCCP(=O)(O)CC1CCCCC1
  -1.3%, 0%, 16%&-3%
NC(=NCCCC(N)C(=O)O)N[N+](=O)[O-] (stereo not drawn)
  4.8%, -4%, -7%
CNc1ncnc2ccc(-c3ccc4c(c3)OCO4)cc12
  2.1%, 3%, -19%
COc1ccc(C(=O)N2CCC[C@@]3(CCN(c4ncccn4)C3)C2)cc1
  1.4%, -7%, -9%
CNC(Cc1c[nH]c2ccccc12)C(=O)O (stereo not drawn)
  1.2%, -8%, -16%
O=c1c(-c2cccc(F)c2)nc2cncnc2n1Cc1ccccc1Cl
  -3.4%, -16%, -23%
CC(C)CN1CC2(CCN(C(=O)c3ccco3)CC2)C1
  5.9%, 8%, 13%
CCCCC[C@H](O)/C=C/[C@@H]1[C@@H](CC(=O)CCCCC(=O)O)[C@@H](O)C[C@H]1O
  7.8%, -7%, 7%[6.7 µM]
COc1ccc2[nH]cc(CCNc3ncnc4ccc(-c5ccc(C(=O)N(C)C)cc5)cc34)c2c1
  -8.3%, -11%, 14%
CN(C)c1ncnc2ccc(-c3ccccc3C(F)(F)F)cc12
  -2.2%, 6%, -27%
C=C(C)C1CC[C@]2(CO)CC[C@@]3(C)[C@H](CCC4[C@@]5(C)CCC(O)C(C)(C)C5CC[C@@]43C)C12 (stereo partly drawn)
  5.0%, -9%, -5%
COc1cccc(/C=C/C(=O)O)c1C(C)C
  0.2%, -12%, -3%
CS(=O)(=O)N1CCC2(CC1)CN(Cc1ccc(C#N)cc1)C2
  2.2%, -3%, -6%
Cn1cc(-c2nc3cnc(Oc4cccc(Cl)c4)nc3n(C3CC3)c2=O)c2ccccc21
  3.9%, -10%, 0%
O=C(c1cnccn1)N1CCC2(CC1)CN(c1ccccc1)C2
  3.0%, -1%, -3%
N[C@@H](C(=O)O)c1ccc(P(=O)(O)O)cc1
  3.2%, -1%, 0%
COC(=O)N1CCC2(CCN(C(=O)Nc3ccccc3)CC2)CC1
  -2.0%, 4%, 10%
Cc1nc2cnc(Oc3ccccc3)nc2n(CCC#N)c1=O
  -1.2%, -4%, -7%
COC(=O)[C@]1(C)CC[C@@]2(C)CC[C@@]3(C)C4=CCc5c(cc(O)c(O)c5C)[C@]4(C)CC[C@@]3(C)C2C1 (stereo partly drawn)
  0.2%, 7%, 20µM*
O=c1c(-c2ccc(F)cc2)nc2cnc(Nc3ccccc3)nc2n1C1CC1
  0.4%, 3%, -4%
CN(Cc1ccco1)c1cc(-c2cccc(C#N)c2)ncn1
  -3.2%, 6%, 8%

Compound profiles, as listed above:
COc1ccc(C(=O)N2CCC[C@@]3(CCN(c4ncccn4)C3)C2)cc1 reads Cruzain inh Det: 1.4%; Cruzain inh noDet: -7%; 2A StopGo: -9%
CC(C)(C#N)O[C@H]1OC(CO)C(O)C(O)C1O (stereo partly drawn) reads Cruzain inh Det: 3.9%; Cruzain inh noDet: -3%; 2A StopGo: 5%
CC(C)CN1CC2(CCN(C(=O)c3ccco3)CC2)C1 reads Cruzain inh Det: 5.9%; Cruzain inh noDet: 8%; 2A StopGo: 13%

Next part:
Each structure is followed by: Cruzain inh Det, Cruzain inh noDet, 2A StopGo
COc1ccc(C(=O)N2CCC3(CCN(Cc4ccccc4)CC3)CC2)cc1
  0.4%, -9%, -13%
O=C(c1csnn1)N1CCC2(CCCN(c3cccc(-c4ccccc4)c3)C2)CC1
  -1.7%, 14%, -9%
Cc1noc(C)c1-c1cc(N(C)Cc2ccco2)ncn1
  3.1%, 10%, -13%
O=c1c(-c2ccc(F)cc2)nc2cnc(Oc3cccc(Cl)c3)nc2n1C1CC1
  1.4%, 2%, -11%
Cc1cc(OC(=O)N2CCCCC2)c(C(C)C)cc1[N+](C)(C)C
  -2.7%, -2%, 0%
COc1cccc(Cn2c(=O)c(-c3cn(C)c4ccccc34)nc3cnc(N4CCNCC4)nc32)c1
  -8.4%, -2%, 3%
Cc1noc(C)c1C(=O)N1CCC[C@@]2(CCN(C(=O)Nc3ccccc3)C2)C1
  3.3%, -2%, 0%
CN(C)C(=O)c1ccc(-c2cncnc2N2CCNCC2)cc1
  0.8%, 17%, -2%
CCCc1c(OCC(O)COc2ccc3c(=O)cc(C(=O)O)oc3c2CCC)ccc(C(C)=O)c1O (stereo not drawn)
  -7.9%, ?, -6%
COc1ncc2nc(-c3cccs3)c(=O)n(-c3ccccc3)c2n1
  5.7%, 12%, 12%
Cc1nc2cnc(OCc3ccccc3)nc2n(CCc2ccccc2)c1=O
  -0.6%, ?, ?
COc1cccc(Cn2c(=O)c(-c3ccccc3)nc3cnc(N4CCN(C)CC4)nc32)c1
  -3.9%, 4%, -4%
Cc1ccccc1-c1cncnc1NCCc1cnc[nH]1
  1.5%, -3%, -19%
Cc1noc(C)c1C(=O)N1CCC2(CCCN(C(=O)NC(C)C)C2)CC1
  -3.0%, -7%, -16%
COc1ncc2nc(C)c(=O)n(-c3ccccc3)c2n1
  0.6%, -2%, 1%
O=C1CC2(CCCC2)CC(=O)N1CCNC[C@H]1COc2ccccc2O1
  -2.6%, 2%, 11%
COc1ncc2nc(-c3cc(F)cc(F)c3)c(=O)n(C3CC3)c2n1
  1.1%, -14%, -14%
CN1CCN(c2ncc3nc(-c4ccc(Cl)cc4)c(=O)n(-c4ccccc4)c3n2)CC1
  -15%, 22%, 0%
COCCn1c(=O)c(-c2cccs2)nc2cnc(OC)nc21
  -1.5%, 12%, -23%
CC1=CC(=O)C2=C(C)C[C@@H]3OC(=O)[C@@H](C)[C@H]3C=C12
  -1.0%, -7%, -17%
CC(=O)OC1CC[C@@]2(C)C3CC(=O)[C@]4(C)C(C(C)=O)=CCC4C3CC[C@H]2C1 (stereo partly drawn)
  2.0%, 1%, -20%
CC(=O)N[C@@H](Cc1c[nH]c2ccccc12)C(=O)O
  3.8%, ?, -4%

Of the compounds above, 4 contain a thiophene ring, fused or not.
Each structure is followed by: Cruzain inh Det, Cruzain inh noDet, 2A StopGo
CN(C)c1ccc(-c2cncnc2NCc2cccs2)cc1
  -3.5%, -9%, -11%
COc1cccc(-c2cncnc2NCc2cccs2)c1
  -2.2%, 0%, -18%
COc1ncc2nc(-c3cccs3)c(=O)n(-c3ccccc3)c2n1
  5.7%, 12%, 12%
COCCn1c(=O)c(-c2cccs2)nc2cnc(OC)nc21
  -1.5%, 12%, -23%

A portion of the library; rates above refer to the full screens.
